# Ecoli growth: E. coli growth inhibition. OD600 absorbance (concentration not given with the values). 0.21% of 330,000 active. Escherichia coli growth, OD600, 23 h; active compounds read low;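 active = OD600 absorbance below the run mean of sample wells minus 3.6 SD, in any replicate, cut at about 0.56 in these data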;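 note: stock transfer was 300 nL into about 60 µL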
# A1 inh: inhibitors of the anti-apoptotic protein A1, read as caspase activation; MEF A1-2A-BIM cells, Caspase-Glo 3/7 luminescence, 3 h; percent of clofoctol response, vehicle zero; caspase activation, % (no concentration beside the values); 0.066% of 330,000 active; AID 2462;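 active = over half of replicate activation scores above 10%, or exactly half above 10 with the replicate mean above 10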;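 note: wells of about 30 µL received 50 nL stock; many hits fall short of the cut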
# FGF22 binding: binders of recombinant human FGF22 by thermal shift | SYPRO orange fluorescence; percent of sucrose octasulfate shift, DMSO zero | 1.5% of 340,000 active | Q9HCT0 | AID 651658 | calls only at 9.99 µM;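 active = melting point raised past a set limit in the mean and every replicate; three in four hits are not shown here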
# UCH37 DUB inh: blocks the human deubiquitinase UCH37. Q9Y5K5. purified proteasome/UCH37, Ub-AMC cleavage fluorescence. inhibition, % (test concentration not listed). 0.33% of 330,000 active;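 active = mean of two replicates above 20%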;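 note: 0% = compound-free wells with enzyme and 100% = wells lacking proteasome; stock transfer was 100 nL into about 20 µL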
#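 Signal – fluorescence, ex 355 nm, em 460 nm · System – Proteasome-bound UCH37 · Input – 0.15 nM proteasome as dispensed · Timing – 30 min preincubation with enzyme, 25 min cleavage at room temperature · Read-out basis – percent inhibition of cleavage signal versus uninhibited and no-proteasome wells · Medium – Tris-HCl pH 7.4 with ATP-MgCl2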
# T cruzi repl: T. cruzi replication inhibition; inhibition, % (test concentration not listed); T. cruzi beta-gal in NIH3T3, luminescence, 90 h; 1.4% of 300,000 active; AID 1885;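 active = mean inhibition across valid replicates above about 55%, limit read from the data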;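 note: signal also drops with host cell toxicity which is not excluded here; 0% = plate median of DMSO wells and 100% = zero luminescence signal; higher percent means less beta-gal luminescence so fewer parasites; stock transfer was 50 nL into about 50 µL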
# Beta apoptosis: beta cell apoptosis inhibition; INS-1E cytokine-induced death, ATP luminescence, 48 h; percent of positive-control rescue, neutral wells zero; 0.8% of 300,000 active; protection from apoptosis, % (no concentration beside the values);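 active = all replicates at 75% or more, or half of them and the mean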;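 note: 0% = cytokine-treated negative control wells and 100% = positive control rescue; higher means more ATP so stronger rescue from cytokine killing; wells of about 40 µL received 100 nL stock; the first replicate is given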
# rRNA inh HTS: inhibitors of bacterial rRNA selective over humanized ribosomes; E. coli WT GFP vs humanized-ribosome RFP mutants, fluorescence, 24 h; active compounds read low; DMSO median 0, no signal -100; GFP signal change (wild-type ribosome), % (concentration not given with the values); 1.6% of 350,000 active;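 active = significant combined selectivity score with lowered wild-type GFP, culture density cut under 30%, mutant RFP and density less affected; inactive = any of these conditions unmet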; note: one replicate is shown; some compounds called inactive have numbers as strong as hits
# MLL AF4-AF9 inh: inhibitors of human MLL-AF4/AF9 interaction; AlphaScreen, biotin-AF4 peptide binding to FLAG-AF9; inhibition, % at 10 µM; 0.47% of 350,000 active;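 active = every replicate reaching a set inhibition limit, whatever the replicate mean, cut at about 25% in these data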;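 note: 0% = plate neutral control median and 100% = total signal loss; the record names both 10 and 1 µM as test concentration; the first replicate is given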
# Target sequence (P42568 whole entry, looked up): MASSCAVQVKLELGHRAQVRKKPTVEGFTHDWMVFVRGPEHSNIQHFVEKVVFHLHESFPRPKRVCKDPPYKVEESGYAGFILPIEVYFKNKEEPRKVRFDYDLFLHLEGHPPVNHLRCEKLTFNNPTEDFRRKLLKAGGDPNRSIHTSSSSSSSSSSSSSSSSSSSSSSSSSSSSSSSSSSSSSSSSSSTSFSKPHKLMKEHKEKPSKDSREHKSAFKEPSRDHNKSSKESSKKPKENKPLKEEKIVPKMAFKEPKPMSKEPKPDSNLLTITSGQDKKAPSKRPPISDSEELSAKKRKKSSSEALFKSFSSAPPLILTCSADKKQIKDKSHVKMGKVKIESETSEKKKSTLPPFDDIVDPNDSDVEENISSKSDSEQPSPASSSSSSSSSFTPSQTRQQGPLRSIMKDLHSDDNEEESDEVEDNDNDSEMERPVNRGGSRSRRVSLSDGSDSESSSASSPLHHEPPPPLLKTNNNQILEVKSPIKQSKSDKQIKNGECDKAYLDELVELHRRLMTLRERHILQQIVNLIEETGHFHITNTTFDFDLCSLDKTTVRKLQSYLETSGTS
# rRNA inh HTS OD600: also measured in rRNA inh HTS; calls as there; OD600 change, %; measured here: OD600 growth;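 optical density of the mix in the first replicate; 0 = DMSO median and -100 = no signal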
# rRNA inh HTS RFP: recorded beside rRNA inh HTS, whose call it bears; RFP signal change, %; measured here: RFP humanized mutant strains;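 first replicate; 0 = DMSO median and -100 = no signal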
# The depositor's hits bear a star; i = inactive; . = no result given. Not all compounds are listed; count on the stated rates, not on these rows.
entry	SMILES	Ecoli growth	A1 inh	FGF22 binding	UCH37 DUB inh	T cruzi repl	Beta apoptosis	rRNA inh HTS	rRNA inh HTS OD600	rRNA inh HTS RFP	MLL AF4-AF9 inh
1	CC(C)OP(=O)(c1ccc(N(C)C)cc1)C(O)c1ccccc1F (centres undefined)	0.71	-0.5	.	2.1	-10	-4	.	.	.	.
2	COc1ccccc1NC(=O)C1CC(C(C)C)OC1=O (centres undefined)	0.65	0.9	i	3.2	-13	-3	3	-11	-0.2	1.6
3	Cc1nonc1OCCNCc1c(C(=O)N2CCCCCCC2)nc2ccc(Cl)cn12	0.71	-0.7	i	-1.9	0	-3	9	5	1.0	2.4
4	Cc1ccc(-c2nc(C)sc2CC(=O)Nc2nnc(C)s2)cc1	0.7	-0.2	.	1.9	-1	14	15	10	-0.8	0.2
5	CN(Cc1nc(-c2cnccn2)no1)CC1CCN(Cc2ccccc2)CC1	0.67	-1.8	i	3.7	16	43	17	6	-0.7	-0.2
6	COc1ccc(NC(=O)c2c(-c3ccccc3)noc2C)c(OC)c1	0.7	0.4	i	1.1	-7	-1	11	1	1.1	3.5
7	COc1ccc(CNC(=O)c2ccc3c(=O)n4c(nc3c2)CCCCC4)cc1OC	0.65	.	.	0.7	.	.	-23	-20	8.1	0.4
8	CCOc1ncccc1C(=O)OCC(=O)N1CCN(S(=O)(=O)c2ccccc2)CC1	0.73	0.5	.	1.3	3	-11	.	.	.	.
9	Cc1c(Cl)cccc1NC(=O)CC(NCCN1CCOCC1)C(=O)O (centres undefined)	0.7	0.3	.	2.4	-7	-2	1	15	-4.9	11
10	Cc1cc(C)cc(Nc2ccc(C(=O)O)cc2[N+](=O)[O-])c1	0.69	0.4	i	3.1	-5	-2	-7	2	4.6	2.5
11	CCC(C)NS(=O)(=O)c1ccc(NC(=O)CCC2CCCCC2)cc1 (centres undefined)	0.72	-0.8	.	2.2	-1	-3	.	.	.	.
12	CC(C)CCNC(=O)NC(=O)CN1C(=O)NC2(CCCCC2)C1=O	0.68	0.6	.	1.7	5	-8	.	.	.	.
13	CCOCCCNC(=O)C(NC(=O)c1ccc(=O)[nH]c1)c1ccc(Cl)cc1 (centres undefined)	0.74	0.1	i	-0.5	-9	5	6	15	-0.8	-3.4
14	COc1ccc(NC(=O)COc2ccc(/C=N/O)cc2OC)cc1	.	0.6	i	.	-3	1	4	-5	2.1	0.1
15	Cc1cc(N=NC(=O)c2ccccc2)ccc1O	0.7	-1.0	i	3.9	-6	-6	11	12	2.8	0.4
16	O=C(Cn1cc(SCc2ccccc2Cl)c2ccccc21)N1CCOCC1	0.6	-0.1	.	3.5	23	-12	.	.	.	.
17	COc1cc(NC(=O)[C@H](C)NC(=O)N2CCn3c2nc2ccccc23)cc(OC)c1	0.72	0.0	i	3.4	-17	-2	-8	-8	1.0	2.5
18	COCCn1c(SCC(=O)NCC2CCCO2)nc2c(c1=O)SCC2 (centres undefined)	0.72	1.4	i	5.2	-6	-3	11	11	2.8	-1.1
19	Cn1c(=O)c2c(nc(CN3CCOCC3)n2CCN2CCOCC2)n(C)c1=O	0.67	-0.2	i	1.3	7	-5	14	5	-4.0	4.3
20	C=CCc1cc(Cl)ccc1OCCCNC(C)C	0.67	-0.4	.	4.9	47	10	.	.	.	.
21	O=C1CSC(=S)N1c1cccc(F)c1	0.59	1.0	i	4.5	-9	-9	5	1	36	-14
22	O=C(NCc1ccccn1)c1ccccc1-c1ccccc1	0.7	0.5	i	2.7	-17	-7	6	-4	-4.3	-1.1
23	CCCC(O)(c1ccc(OC)cc1)C(CN1CCOCC1)c1ccccc1 (centres undefined)	0.65	-0.3	i	1.1	-27	-2	-6	-14	-0.1	0.2
24	Cc1ccc(SCC(=O)Nc2cccc(C)c2)cc1	0.63	-0.7	i	5.3	-3	-2	-2	0	-1.5	-3.1
25	O=C(COC(=O)c1ccco1)NC12CC3CC(CC(C3)C1)C2	0.66	-2.3	i	0.3	.	-1	24	17	2.0	-3.4
26	NC(=O)c1ccc(NC(=O)COC(=O)c2ccccc2Nc2ccccc2)cc1	0.7	0.0	i	-6.6	1	-9	12	9	2.7	-0.6
27	Cc1ccc(NC(=O)CN(C)C2CCCCC2)cc1Br	0.62	0.3	i	2.7	24	-4	-15	-43	34	0.9
28	Cc1c(O)ccc2c(O)c(NC(=O)c3ccc4c(c3)CCC(C)(C)O4)c(=O)oc12	0.69	-0.6	i	2.6	-1	8	-16	-16	-0.9	-0.5

# Among those listed so far, 8 have a halogen:
entry	SMILES	Ecoli growth	A1 inh	FGF22 binding	UCH37 DUB inh	T cruzi repl	Beta apoptosis	rRNA inh HTS	rRNA inh HTS OD600	rRNA inh HTS RFP	MLL AF4-AF9 inh
1	CC(C)OP(=O)(c1ccc(N(C)C)cc1)C(O)c1ccccc1F (centres undefined)	0.71	-0.5	.	2.1	-10	-4	.	.	.	.
3	Cc1nonc1OCCNCc1c(C(=O)N2CCCCCCC2)nc2ccc(Cl)cn12	0.71	-0.7	i	-1.9	0	-3	9	5	1.0	2.4
9	Cc1c(Cl)cccc1NC(=O)CC(NCCN1CCOCC1)C(=O)O (centres undefined)	0.7	0.3	.	2.4	-7	-2	1	15	-4.9	11
13	CCOCCCNC(=O)C(NC(=O)c1ccc(=O)[nH]c1)c1ccc(Cl)cc1 (centres undefined)	0.74	0.1	i	-0.5	-9	5	6	15	-0.8	-3.4
16	O=C(Cn1cc(SCc2ccccc2Cl)c2ccccc21)N1CCOCC1	0.6	-0.1	.	3.5	23	-12	.	.	.	.
20	C=CCc1cc(Cl)ccc1OCCCNC(C)C	0.67	-0.4	.	4.9	47	10	.	.	.	.
21	O=C1CSC(=S)N1c1cccc(F)c1	0.59	1.0	i	4.5	-9	-9	5	1	36	-14
27	Cc1ccc(NC(=O)CN(C)C2CCCCC2)cc1Br	0.62	0.3	i	2.7	24	-4	-15	-43	34	0.9

# Source: PubChem (several laboratories)
